# High-throughput results as filed in PubChem BioAssay.
# D2 agonist = agonists of human D2 dopamine receptor (beta-arrestin); 360,000 compounds, 0.084% hits; DiscoveRx PathHunter D2 beta-arrestin, luminescence, 90 min; 100% = 57 uM dopamine signal; activation, % (concentration not given with the values); AID 624465; P14416; in the data active = activation above about 40%; inconclusive = about 15% to 40%; inactive = below about 15%; also: the text of the record calls up to 30% inactive
# Target sequence (P14416 whole entry, looked up): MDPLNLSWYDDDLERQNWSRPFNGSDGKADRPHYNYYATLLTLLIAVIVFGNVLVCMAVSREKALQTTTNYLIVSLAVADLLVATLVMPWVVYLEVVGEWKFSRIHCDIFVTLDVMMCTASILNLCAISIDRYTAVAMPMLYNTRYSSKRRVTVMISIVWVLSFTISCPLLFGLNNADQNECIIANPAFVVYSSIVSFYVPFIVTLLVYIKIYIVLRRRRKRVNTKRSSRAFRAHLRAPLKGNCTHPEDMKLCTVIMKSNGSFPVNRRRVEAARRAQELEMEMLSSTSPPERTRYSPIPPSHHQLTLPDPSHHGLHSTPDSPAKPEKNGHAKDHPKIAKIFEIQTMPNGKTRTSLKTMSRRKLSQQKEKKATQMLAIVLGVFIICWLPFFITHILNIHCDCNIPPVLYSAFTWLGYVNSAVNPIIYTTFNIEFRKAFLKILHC
#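 DiscoveRx PathHunter D2 beta-arrestin cells (2,100/well) attached overnight, then compound-stimulated 90 min at 37 C in HBSS/10 mM HEPES/0.1% Tween-20 buffer; beta-galactosidase complementation read by luminescence after 1 h at ambient temperature. Dopamine 57 uM final (EC100) as control.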
# Sfp PPTase inh = inhibitors of Bacillus subtilis Sfp phosphopantetheinyl transferase. Q9F4F7. Biochemical Sfp PPTase activity, qHTS. Potency, µM, for the others: max response, negative = inhibition, actives largely listed as inhibitors. 310,000 compounds, 3.5% hits; active = well fitted inhibition curve with a large enough effect; inconclusive = small, poorly fitted or top-dose-only effect, or another doubt; inactive = no such curve, though single readings can be large or run the other way;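 also: the enzyme is Sfp with the accession as filed and its product quenches rhodamine fluorescence; potency is read from the fitted curve at half-maximal effect; 0% = enzyme reaction without inhibitor and -100% = no enzyme wells; top concentration of the series not given in the record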
#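 Fluorescence-quenching assay with 15 nM Sfp, 5 uM rhodamine-CoA and 12.5 uM BHQ-2-labelled ybbR peptide in pH 7.6 Hepes/MgCl2 buffer. Enzyme was pre-incubated with compound for 15 min at room temperature. Rate was taken from the 30-min fluorescence change (525/598 nm).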
# ClpP mod = qHTS Assay for Activators of ClpP; ATP-dependent Clp protease proteolytic subunit (Bacillus subtilis (strain 168)), P80244; 340,000 compounds, 1.9% hits; Potency, µM (series often up to 57.5 µM), inactives show at the highest dose activity change, negative = active; purified B. subtilis ClpP, FRET peptide cleavage, 20 min; AID 651965, 2013; active = well fitted falling curve with a large enough effect; inconclusive = small, poorly fitted or top-dose-only effect; inactive = no such curve, though single readings can be large or run the other way; also: potency is read from the fitted curve at half-maximal effect; the source files actives as falling curves though it sought activators and does not explain the sign; nearly all actives have a fitted effect of over 65% in size; many hits overshoot -100%
# Target sequence (P80244 whole entry, looked up): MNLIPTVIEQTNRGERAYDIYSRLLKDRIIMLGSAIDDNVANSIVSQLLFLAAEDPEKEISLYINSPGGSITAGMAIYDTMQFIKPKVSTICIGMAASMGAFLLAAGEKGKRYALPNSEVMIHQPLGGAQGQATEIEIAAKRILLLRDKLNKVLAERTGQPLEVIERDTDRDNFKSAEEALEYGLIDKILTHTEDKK
#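 Buffer: 100 mM Tris/HCl pH8, 100 mM KCl, 0.05% low protease BSA, 2.5% glycerol, 0.01% Tween-20. ClpP 10 microg/mL final; 20 min RT; delta FRET normalized to ADEP and DMSO controls.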
# PINK1 expr mod = modulators of PINK1 expression; 410,000 compounds, 0.2% hits; PINK1 immunofluorescence, high-content cytometry, 24 h; Potency, µM (highest dose often 76.6 µM), for the others: at the top dose activation (PINK1 increase), usual class: activators; active = well fitted activation curve with a large enough effect; inconclusive = small, poorly fitted or top-dose-only effect; inactive = flat fitted curve, though single readings scatter; cell line not stated here;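 also: potency is read from the fitted curve at half-maximal effect; % of control where 0% means no effect; nearly all actives have a fitted effect of over 65% in size; a mitochondrial uncoupler was the plate control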
#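 Decision-based qHTS: stable cells, 24 h exposure to five compound concentrations, CCCP as control. Fixed cells stained for PINK1 plus nuclear, mitochondrial and cell markers, cytometer read.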
# gsp ag = agonists of gsp mutant (McCune-Albright syndrome). gsp mutant cells, cAMP HTRF, 30 min; control for the full effect not named in the record. Potency, µM (titrated, usually from 76.9 µM), for the others: at the highest dose activation (cAMP increase), usual class: activators. 340,000 compounds, 0.13% hits. AID 624287; active = well fitted activation curve with a large enough effect; inconclusive = small, poorly fitted or top-dose-only effect, or another doubt; inactive = no such curve, though single readings can be large or run the other way; cell line not stated here;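 also: phosphodiesterase inhibitor Ro 20-1724 added with compounds to block cAMP breakdown; potency is read from the fitted curve at half-maximal effect; nearly all actives have a fitted effect of over 60% in size; about a fifth of the inactives were tested at one dose only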
#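 Cells stably selected in G418 were plated at 2000/well, grown 16-24 hr, then given compounds in DMSO with the PDE inhibitor […] (300 uM solution added) for 30 min at 37C; cAMP was read by HTRF.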
# gsp antagonist = antagonizes gsp, the McCune-Albright syndrome mutation; gsp-mutant cells, cAMP HTRF, 30 min; control for the full effect not named in the record; Potency, µM (titrated, usually from 76.9 µM), for the others: at the highest dose activity change, negative = inhibition, most hits filed as inhibitors; 340,000 compounds, 0.4% hits; AID 624288; active = falling curve of any shape with a large fitted effect; inconclusive = falling curve, mostly with a smaller effect; inactive = flat or rising curve; cell line not stated here;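 also: intracellular cAMP measured with PDE inhibitor Ro 20-1724 present during compound exposure; potency is read from the fitted curve at half-maximal effect; % is scaled to controls: 0 for no effect and ±100 for the full control effect; nearly all actives have a fitted effect of over 65% in size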
#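 Measurement of cellular cAMP by homogeneous time-resolved fluorescence following a 30 min compound exposure at 37C. The PDE inhibitor […] was present throughout; the assay buffer was DPBS with 0.05% BSA and 0.005% Tween 20.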
# Menin-MLL FL inh = menin-MLL binding inhibition, fluorescein peptide. Fluorescence polarization, fluorescein-MLL peptide displacement from menin. FP activity change, % at 61.4 µM. 290,000 tested, under 10 active. AID 1766; inconclusive = falling polarisation curve, or a change in total fluorescence; inactive = total fluorescence flat and polarisation flat or rising; no compound was filed as active; the % refers to the polarisation; negative = inhibition;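 also: % of control where 0% means no effect; inhibitors lower the polarisation; unlabelled MLL peptide was the positive control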
# An asterisk follows results filed as active; ? = inconclusive; / = not tested or not shown; & = joins results of further samples; [ ] = dose if it differs, or a comment. The order is random; overall some 5.1% were active at least once.
SMILES,D2 agonist,Sfp PPTase inh,ClpP mod,PINK1 expr mod,gsp ag,gsp antagonist,Menin-MLL FL inh
COc1cc(OC)cc(C(=O)N[C@H](C(=O)OCC(=O)Nc2sccc2C#N)C(C)C)c1,-18,-5%,-7.3%,-1.6%,5%,-27%,10
CSc1ccccc1OCc1cc(C(=O)N2CCSCC2)no1,-2.1,-1%,-0.2%,0.5%,6%,-1%,/
CCN1C[C@@H]2[C@@H]3C(=O)N(C)C(=O)[C@@H]3[C@](Cc3ccccc3)(C1=O)N2C(=O)c1ccc(Cl)c(Cl)c1,-1.0,/,0.2%,-0.5%,-5%,2%,/
CC(C)Oc1ccc(S(=O)(=O)N2CCOCC2)cc1NC(=O)CSC(=S)N1CCCC1,3.6,/,0.0%,0.3%,-24%,/,/
CCOCCCNC(=S)N(CCN(CC)CC)Cc1cc2cc3c(cc2[nH]c1=O)OCCO3,-4.7,8%,3.6%,-0.5%,1%,2%,1.0
COc1ccc(NC(=O)C23CC4CC(C2)CC(n2cnc(Br)n2)(C4)C3)cc1OC,-3.2,8%,-1.3%,5.6%[38.3 µM],-22%,6%,4.2
CCCc1cc(=O)[nH]c(SCC(=O)NC2CCCCCCC2)n1,-1.5,/,-2.5%,1.3%,-6%[15.4 µM],-1%,/
CC(C)CN1C(=O)NC(NC(=O)c2cccs2)(C(F)(F)F)C1=O (configuration not stated),-5.1,14%,-0.1%,4.5%[38.3 µM],-3%,-1%,1.7
CCOC(=O)CNc1c(-c2ccccc2)nc2ccc(Cl)cn12,1.9,-16%,-11%,1.0%,5%,?,2.6
Cc1ccc2nc(SC(C)C(=O)NC3CCCc4ccccc43)[nH]c2c1 (configuration not stated),-0.4,26%,25µM*,?,5%,-19%,1.3
CC1C/C(=N\NC(=S)NCc2ccccc2)CC(C)(C)C1 (configuration not stated),-4.8,-24%,0.6%,4.3%,9%,-14%,7.5
CC1=C(C#N)C(Nc2cc(C)ccn2)(C(F)(F)F)C(=O)N1 (configuration not stated),-2.2,10%,1.5%,-0.5%,2%,9%,-5.5
Cc1cc(C)cc(NC(=S)N2CCN(C(=O)c3ccco3)CC2)c1,-0.9,-7%,-1.7%,-1.1%,-13%,-12%,-5.3
Cc1c(NC(=O)c2cccc(NC(=O)Cc3ccccc3F)c2)c(=O)n(-c2ccccc2)n1C,-1.7,/,-1.5%,-1.2%,-7%,11%,/
CC1CC(=O)N(CC(=O)NCc2ccc3c(c2)OCO3)c2ccccc2S1 (configuration not stated),2.1,10%,-1.7%,1.1%,-12%,0%,-1.5
O=C(Cn1cncn1)NCc1cccc(C(F)(F)F)c1,-5.2,16%,1.1%,1.8%,0%,13%,-0.8
N#CCC(CNc1ncc(C(F)(F)F)cc1Cl)OC(=O)c1cccc(C(F)(F)F)c1 (configuration not stated),-2.7,33%[activator],4.7%,1.0%,?,-7%,4.0
COc1ccc(Cl)cc1C(=O)NNC(=S)NC(=O)c1cc(-c2ccc(Cl)cc2)nc2ccccc12,-0.6,19%,-1.5%,-0.4%,-15%,10%,3.0
Cc1cc(S(=O)(=O)Nc2nc(CN3CCOCC3)nc3sc4c(c23)CCC4)cc(C)c1C,-4.7,/,-11%,1.5%,2%,-10%,/
Cc1ccc(S(=O)(=O)/C(C#N)=C/c2c(N3CCCCC3)nc3ccccn3c2=O)cc1,-2.9,0%,-2.1%,-0.5%,2%[15.4 µM],-19%,-2.6
Cn1c(-c2ccsc2)c(-c2cccs2)c2cc(Br)ccc21,0.2,/,?,3.1%,/,-4%,/
O=S(=O)(c1ccccc1F)N1CCN(Cc2cc3c(cc2Br)OCCO3)CC1,1.9,/,0.4%,0.6%,0%,-15%,/
Cc1cccc(Nc2nnc(SCc3cn4ccsc4n3)s2)c1,0.0,-8%,-3.4%,0.9%,-3%,-2%,5.2
CCN1CCN(Cc2c(O)ccc3c(=O)c(-c4ccc(OC)c(OC)c4)c(C)oc23)CC1,-1.8,17%,28µM*,2.4%[38.3 µM],-7%,-8%,-0.5
CSc1ncc(CN2CCN(C3CCN(C(C)C)CC3)C(CCO)C2)cn1 (configuration not stated),0.5,10%,/,0.5%,-5%[15.4 µM],9%,-0.5

# A few values from above.
# Result of N#CCC(CNc1ncc(C(F)(F)F)cc1Cl)OC(=O)c1cccc(C(F)(F)F)c1 (configuration not stated) in D2 agonist: -2.7
# Result of COc1ccc(Cl)cc1C(=O)NNC(=S)NC(=O)c1cc(-c2ccc(Cl)cc2)nc2ccccc12 in gsp ag: -15%

# Carrying on:
SMILES,D2 agonist,Sfp PPTase inh,ClpP mod,PINK1 expr mod,gsp ag,gsp antagonist,Menin-MLL FL inh
Cc1cc(Oc2nnnn2-c2ccccc2)ccc1Cl,1.4,6%,0.9%,2.1%[38.3 µM],-2%,-4%,0.4
CC(CCc1ccccc1)NC(=O)c1ccc(F)cc1 (configuration not stated),0.5,6%,-2.8%,1.8%,-2%[15.4 µM],5%,-1.1
CCOc1ccc(Cc2onc3c2C(=O)CCC3)cc1OCC,-2.9,15%,-0.5%,1.2%,26%[15.4 µM],-27%,-6.2
C/C(=N\NC(=O)CC#N)c1cc2ccc(O)cc2oc1=O,-3.2,-5%,1.3%,-0.8%,-10%[15.4 µM],-2%,?
Cn1c(=O)c2c(nc(SCC(=O)N3CCc4ccccc4C3)n2C)n(C)c1=O,1.0,20%,-0.6%,2.3%[38.3 µM],?,3%,0.4
O=C(NNC(=O)C1CCN(S(=O)(=O)c2cccc(Cl)c2)CC1)C1CC1,-0.5,12%,-1.8%,0.0%,-10%,?,-2.8
COCn1c(-c2ccccc2)nc2ccccc21,-6.1,5%,-28%,-1.5%,10%,1%,-1.2
COC(=O)c1cccnc1-n1c(=O)c2cccnc2n(CC(=O)Nc2ccc(Br)cc2)c1=O,-3.5,8%,-2.9%,0.3%,10%,4%,3.8
COc1ccccc1N1CCN(Cc2cc(=O)oc3ccccc23)CC1,-3.2,/,2.3%,1.2%,/,/,/
COc1ccc(/C(N)=N/OC(=O)Cc2ccc(C)cc2)cc1OC,-9.5,-5%,-3.4%,1.5%,-3%,?,-1.2
COc1ccccc1CC(=O)Nc1ccc2c(c1)CCC2,2.4,12%,-2.6%,-1.1%,-39%[inhibitor],-1%,1.0
S=C1NC2=C(CCC/C2=C\c2ccc(Cl)cc2)C(c2ccc(Cl)cc2)N1 (configuration not stated),-4.1,7.9µM*,-0.5%,-1.2%,-18%[15.4 µM],3%,-1.5
CCOC(=O)N1CCN(C(=O)COC(=O)COc2c(C)cc(C)cc2C)CC1,-4.6,/,-0.3%,-1.7%,-10%[15.4 µM],2%,/
C[C@@H]1CN([C@H](C)CO)C(=O)CCCn2nncc2CO[C@H]1CN(C)Cc1ccncc1,-9.7,/,-0.9%,-0.4%,-37%[inhibitor],/,/
CC(=O)OCCNc1cc(SC(C)C)c2nonc2c1[N+](=O)[O-],-3.2,3%,/,-0.1%,2%[15.4 µM],-10%,0.0
COc1ccccc1-c1nc(C(=O)NCC2CCCO2)cc2c1[nH]c1ccccc12 (configuration not stated),0.1,-7%,4.2%,1.8%,-38%[inhibitor],?,2.9
O=C(O)COc1ccc(/C=N/O)cc1Br,-2.4,13%,/,-1.2%,16%[15.4 µM],/,-3.9
CCOC(=O)[C@@H]1[C@H]2COc3cc(OC)ccc3[C@H]2N2C(=O)N(c3cccc(Cl)c3)C(=O)[C@]12C,-3.2,7%,-0.1%,0.1%,-7%,-12%,3.9
NC(=O)C[n+]1cccc(CNC(=O)c2ccc(OC(F)F)cc2)c1,-3.8,-5%,/,2.7%,-14%[15.4 µM],/,-1.1
O=C(NN1C(=O)C2C(c3ccccc3)C=CC(c3ccccc3)C2C1=O)c1ccncc1 (configuration not stated),-1.5,18%,1.6%,0.0%,21%,-3%,-5.2
COc1ccc(CCNS(=O)(=O)c2ccc3c(c2)NC(=O)C(C)S3)cc1OC (configuration not stated),3.8,10%,-3.9%,-0.7%,1%,5%,-3.5
Cc1noc(C)c1COc1ccc(C(=O)NNC(=O)c2ccccc2O)cc1,-3.1,/,/,4.8%,13%[15.4 µM],2%,/
CC1CCCN(c2ccc3nc4ccccc4c(=O)n3n2)C1 (configuration not stated),6.3,11%,/,3.2%,-2%[15.4 µM],10%,-4.5
Cc1ncsc1C(=O)N1CCCC(CNS(=O)(=O)c2cccs2)C1 (configuration not stated),0.6,13%,-3.0%,0.3%,-22%,3%,-0.9
N#CCCN(Cc1cccnc1)C(=S)NC1CC2C=CC1C2 (configuration not stated),-3.7,19%,/,-0.5%,5%[15.4 µM],0%,-2.0
# (list continues)
SMILES,D2 agonist,Sfp PPTase inh,ClpP mod,PINK1 expr mod,gsp ag,gsp antagonist,Menin-MLL FL inh
COc1ccc(OC)c(CNn2c(-c3cccc(C)c3)nc3ccccc3c2=O)c1,1.4,-8%,-3.0%,-0.5%[38.3 µM],-45%,-26%,3.0
O=C(CN(C(=O)Cn1nnc(-c2ccc(F)cc2)n1)C1CCCC1)NC1CCCC1,0.7,-20%,-1.2%,23%[38.3 µM],-6%,-7%,1.9
Cn1c(CNC(=O)c2ccco2)nnc1SCC(=O)c1ccc(Br)cc1,-2.9,12%,/,1.0%,-23%[15.4 µM],/,-5.9
CCOC(=O)c1cnc(SCC(=O)Nc2ccc3c(c2)OCCO3)nc1N,1.8,13%,-1.7%,-0.6%,27%,-5%,5.9
COc1ccc(NC(=O)CN(C)S(=O)(=O)c2ccc3c(c2)c(=O)n(C)c(=O)n3C)cc1,5.7,5%,-6.3%&-7.5%,-0.8%&0.5%,-46%[inhibitor],6%,/
CCC(C)(C)NC(=S)Nc1ccc(-c2nc3ccc(C)cc3s2)cc1,-4.8,?,?,5.5%,?,17%,?
CCN(CC)Cc1c(C(=O)N2CCc3ccccc3C2)nc2ccc(Cl)cn12,-1.7,-9%,/,0.1%,8%[15.4 µM],/,-14
